Screening data from PubChem.
rRNA inh HTS: reduced GFP signal of wild-type E. coli, primary screen, bacterial rRNA inhibitor project, GFP/RFP fluorescence, OD600, single point | E. coli WT GFP vs humanized-ribosome RFP mutants, 24 h; stronger effect = lower value; DMSO median 0, no signal -100 | GFP signal change (wild-type ribosome), % (concentration not given with the values) | actives 1.6% (n = 350,000) | AID 720706, 2013;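 active = significant combined selectivity score with lowered wild-type GFP, culture density cut under 30%, mutant RFP and density less affected; inactive = any of these conditions unmet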; note: one replicate is shown; some compounds called inactive have numbers as strong as hits
rRNA inh HTS OD600: also measured in rRNA inh HTS; calls as there; OD600 change, %; measured here: OD600 growth;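 optical density of the mix in the first replicate; 0 = DMSO median and -100 = no signal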
rRNA inh HTS RFP: second read-out of rRNA inh HTS, no call of its own (marks repeat the call); RFP signal change, %; measured here: RFP humanized mutant strains;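 first replicate; 0 = DMSO median and -100 = no signal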
The depositor's hits bear a star; & = joins results of further samples. Some of the compounds tested; the hit share may differ from the screen's.

SMILES | rRNA inh HTS | rRNA inh HTS OD600 | rRNA inh HTS RFP
Cc1noc(C)c1NC(=O)Nc1ccc2c(c1)C(=O)N([C@@H](C)CO)C[C@@H](C)[C@@H](CN(C)C(=O)Nc1ccccc1)O2 | -4 | -12 | -0.5
Cc1noc(C)c1S(=O)(=O)Nc1ccc2c(c1)C(=O)N([C@H](C)CO)C[C@H](C)[C@H](CN(C)C(=O)CCCN(C)C)OCCCC[C@@H](C)O2 | 4 | 10 | 0.1
CCCNC(=O)N[C@@H]1C=C[C@H](CC(=O)NCCc2ccccc2)O[C@@H]1CO | 0 | -1 | -1.3
CN1OC[C@@H]2CN[C@H](c3ccc(-n4ccnc4)cc3)C[C@@H]21 | 25 | 15 | -0.3
CC(C)NC(=O)N(C)C[C@H]1Oc2ncccc2C(=O)N(C)C[C@@H]1C | -1 | 6 | -1.5
CC(C)NC(=O)Nc1ccc2c(c1)C(=O)N(C)C[C@H](C)[C@H](CN(C)C(=O)NC(C)C)O2 | -1 | -19 | 0.8
CC(C)NC(=O)N1CCCCN2[C@H](CO)[C@H](c3ccc(C#C[C@@H](C)O)cc3)[C@H]2C1 | 7 | 19 | 0.1
C[C@@H]1CCCCO[C@@H](CN(C)S(=O)(=O)c2ccc(F)cc2)[C@@H](C)CN([C@@H](C)CO)C(=O)c2cc(NS(=O)(=O)c3ccc(F)cc3)ccc2O1 | -3 | -1 | -0.8
COc1cc(C(=O)NC2CCCCN(C)C2=O)cc(OC)c1OC (configuration not stated) | 13 | 9 | 2.9
CN(C)CC(=O)N1CC(=O)N2[C@H](C1)[C@@H](c1ccc(C#Cc3cccnc3)cc1)[C@@H]2CO | 4 | 10 | -3.1
CCC(=O)N1CC[C@@H]2[C@@H](CO)N(C)c3ccc(-c4cccc(F)c4)cc3[C@@H]21 | -13 | -48 | 11
COc1ccc(CN(C)C[C@@H]2OCCCC[C@H](C)Oc3ccc(NC(=O)Nc4ccccc4)cc3C(=O)N([C@@H](C)CO)C[C@@H]2C)cc1 | 0 | -23 | 29
CCCNC(=O)N1[C@@H](CO)[C@H](c2ccccc2)[C@@H]1CNC(=O)c1ccc(F)cc1 | -4 | -6 | -3.1
O=C(CC1CC1)Nc1ccc2c(c1)[C@H]1C[C@H](CC(=O)N3CCOCC3)O[C@H](CO)[C@H]1O2 | 1 | 10 | -0.8
Cc1noc(C)c1NC(=O)N(C)C[C@H]1OCCCC[C@@H](C)Oc2ccc(NS(=O)(=O)c3cn(C)cn3)cc2C(=O)N([C@H](C)CO)C[C@@H]1C | 3 | 11 | -0.7
CS(=O)(=O)Nc1ccc2c(c1)[C@H]1C[C@@H](CC(=O)NCc3ccc(-c4ccccc4)cc3)O[C@@H](CO)[C@H]1O2 | -5 | -12 | -0.6
COc1ccc2c3c(n(C)c2c1)[C@H](CO)NCC31CN(S(=O)(=O)c2ccc(C)cc2)C1 | -6 | -8 | 1.5
CO[C@H]1CN(C)C(=O)c2cc(NC(=O)C3CC3)ccc2OC[C@@H](C)N(C(=O)c2ccccn2)C[C@@H]1C | -1 | -1 | 0.4
CC(=O)NC[C@@H]1[C@H](c2ccc(-c3cccc(F)c3)cc2)[C@@H](CO)N1C(C)=O | -2 | 1 | 0.5
C/C=C/c1ccc([C@H]2[C@@H](CO)N(C(C)=O)[C@@H]2CN(CCC)C(C)=O)cc1 | 1 | -7 | 1.8
Cc1noc(C)c1NC(=O)N(C)C[C@H]1OCCCC[C@@H](C)Oc2ccc(NC(=O)Nc3cccc4ccccc34)cc2C(=O)N([C@H](C)CO)C[C@@H]1C | 1 | 2 | -0.9
O=C(C[C@H]1C[C@@H]2c3cc(NC(=O)Nc4ccccc4)ccc3O[C@@H]2[C@H](CO)O1)NCc1cccnc1 | 1 | 2 | -2.9
Cc1ccccc1-c1ccc(C2[C@H]3CNC[C@@H]2N3C(=O)Nc2ccc(Cl)cc2)cc1 (some centres not stated) | -61&-60 | -78&-78 | -12&-13
CCCNC(=O)Nc1ccc2c(c1)C(=O)N(C)C[C@@H](OC)[C@H](C)CN(C(=O)CC)[C@H](C)CO2 | 1 | -6 | -0.1
C[C@@H]1CN([C@H](C)CO)C(=O)Cc2cc(NS(=O)(=O)c3ccc(Cl)cc3)ccc2O[C@H]1CN(C)C(=O)Nc1ccc2c(c1)OCO2 | -4 | -2 | -4.8
Nc1nc2c(ncn2[C@@H]2O[C@H](C(=O)N[C@H](Cc3ccccc3)C(=O)NCc3ccc4c(c3)OCO4)[C@@H](O)[C@H]2O)c(=O)[nH]1 | 9 | 5 | 7.2
CNC[C@@H]1OCCCC[C@H](C)Oc2ccc(NS(=O)(=O)c3c(C)noc3C)cc2C(=O)N([C@H](C)CO)C[C@@H]1C | 6 | 8 | 0.2
O=C(NC[C@@H]1[C@H](c2ccccc2)[C@@H](CO)N1C(=O)C1CCC1)NC1CCCC1 | -2 | 1 | -1.0
COc1cccc(S(=O)(=O)N(C)C[C@H]2OCc3cn(nn3)CCCC(=O)N([C@@H](C)CO)C[C@H]2C)c1 | 3 | -1 | 1.9
COc1ccc(S(=O)(=O)Nc2cccc3c2O[C@H](CN(C)S(=O)(=O)c2ccccc2)[C@H](C)CN([C@H](C)CO)C3=O)cc1 | 3 | 5 | -0.7

Single entries from the results shown:
Cc1ccccc1-c1ccc(C2[C@H]3CNC[C@@H]2N3C(=O)Nc2ccc(Cl)cc2)cc1 (some centres not stated) in rRNA inh HTS OD600 is listed with -78&-78
COc1ccc2c3c(n(C)c2c1)[C@H](CO)NCC31CN(S(=O)(=O)c2ccc(C)cc2)C1 in rRNA inh HTS is listed with -6

The listing picks up with the three entries that preceded the break.
SMILES | rRNA inh HTS | rRNA inh HTS OD600 | rRNA inh HTS RFP
O=C(NC[C@@H]1[C@H](c2ccccc2)[C@@H](CO)N1C(=O)C1CCC1)NC1CCCC1 | -2 | 1 | -1.0
COc1cccc(S(=O)(=O)N(C)C[C@H]2OCc3cn(nn3)CCCC(=O)N([C@@H](C)CO)C[C@H]2C)c1 | 3 | -1 | 1.9
COc1ccc(S(=O)(=O)Nc2cccc3c2O[C@H](CN(C)S(=O)(=O)c2ccccc2)[C@H](C)CN([C@H](C)CO)C3=O)cc1 | 3 | 5 | -0.7
O=C(Nc1ccccc1F)N1CC(=O)N2[C@H](C1)[C@@H](c1ccc(-c3ccc(F)cc3)cc1)[C@@H]2CO | -27 | -64 | 6.1
CN1CCN(C(=O)C[C@H]2CC[C@H]3[C@@H](COC[C@@H](O)CN3C(=O)c3ccccc3F)O2)CC1 | 6 | -3 | -3.0
C[C@H](CO)N1C[C@H](C)[C@H](CN(C)S(=O)(=O)c2ccc(F)cc2)OCCCC[C@H](C)Oc2ccc(NC(=O)Cc3ccccc3)cc2C1=O | -1 | -2 | 1.1
C[C@H](CO)N1C[C@H](C)[C@@H](CN(C)C)OCc2cn(nn2)CCCC1=O | -2 | 1 | 1.4
COc1ccc(NC(=O)Nc2ccc3c(c2)CC(=O)N([C@@H](C)CO)C[C@@H](C)[C@@H](CN(C)C(=O)Nc2c(C)noc2C)O3)cc1 | 3 | 0 | -2.0
CCNC(=O)C[C@@H]1CC[C@H]2[C@@H](COC[C@H](O)CN2C(=O)c2ccccn2)O1 | 4 | 12 | -2.2
CNC(=O)C[C@H]1CC[C@@H]2[C@H](COc3ccc(NC(=O)c4cnccn4)cc3C(=O)N2C)O1 | -3 | 1 | -2.0
C[C@@H]1CN([C@@H](C)CO)C(=O)Cc2cc(NC(=O)Cc3ccccc3)ccc2O[C@@H]1CN(C)Cc1ccc(C(=O)Nc2ccccc2N)cc1 | -3 | 3 | 1.1
C[C@H]1CN(C)C(=O)c2cc(N(C)C)ccc2O[C@H]1CN(C)S(C)(=O)=O | -2 | 0 | -2.1
COc1ccc(NC(=O)Nc2ccc3c(c2)C(=O)N([C@H](C)CO)C[C@H](C)[C@@H](CN(C)S(=O)(=O)c2c(C)noc2C)OCCCC[C@@H](C)O3)cc1 | 7 | 6 | -0.6
COc1ccc(C#Cc2cnc3c(c2)C(=O)N([C@H](C)CO)C[C@@H](C)[C@@H](CN(C)CC2CC2)O3)cc1 | -2 | 7 | -3.3
COc1ccc2c3c([nH]c2c1)[C@@H](CO)N(C(=O)c1ccc(F)cc1)CC31CCN(S(=O)(=O)c2cccs2)CC1 | -3 | -1 | 1.9
COc1cccc(CNC(=O)C[C@@H]2CC[C@H]3[C@@H](COc4ccc(NC(C)=O)cc4C(=O)N3C)O2)c1 | -3 | -5 | -2.6
C[C@@H]1CN([C@@H](C)CO)C(=O)CCCn2cc(nn2)CO[C@@H]1CN(C)C(=O)Nc1cccc(F)c1 | 1 | 3 | 0.3
C[C@@H]1CN([C@@H](C)CO)C(=O)c2c(c3ccccc3n2C)-c2ccccc2CO[C@@H]1CN(C)Cc1ccccc1 | -7 | -16 | 21
Cc1noc(C)c1NC(=O)N(C)C[C@@H]1OCCCC[C@H](C)Oc2ccc(NS(C)(=O)=O)cc2C(=O)N([C@H](C)CO)C[C@@H]1C | 2 | 9 | 0.0
Cc1noc(C)c1S(=O)(=O)N(C)C[C@H]1Oc2ccc(NC(=O)Nc3ccccc3)cc2CC(=O)N([C@H](C)CO)C[C@H]1C | 2 | 15 | 7.6
CN(C)CC(=O)Nc1ccc2c(c1)[C@H]1C[C@H](CC(=O)N(C)C)O[C@@H](CO)[C@H]1O2 | 3 | 8 | 0.3
C[C@@H]1CN([C@@H](C)CO)C(=O)c2cc(N(C)C)ccc2O[C@@H](C)CCCCO[C@H]1CN(C)S(=O)(=O)c1cn(C)cn1 | 0 | 6 | 1.8
CC(C)C[C@H](NC(=O)CC1CCCC1)C(=O)N1CCC[C@H]1C(=O)NCc1ccccc1 | -5 | 0 | -3.4
C[C@@H]1CN([C@H](C)CO)C(=O)c2cc(NC(=O)Nc3ccc(C(F)(F)F)cc3)ccc2O[C@@H](C)CCCCO[C@H]1CN(C)Cc1ccc(C(F)(F)F)cc1 | -6 | -1 | -4.3
CCCN1C(=O)c2[nH]nc(-c3ccccc3)c2C1c1ccc(C)cc1 (configuration not stated) | -23 | -31 | -3.3
CO[C@H]1CN(C)C(=O)c2ccc(NC(=O)C3CC3)cc2OC[C@@H](C)N(Cc2cccc(F)c2)C[C@H]1C | -3 | -3 | 2.9
CCCC#Cc1ccc([C@H]2[C@@H](CO)N(C(C)=O)[C@H]2CN(C)S(C)(=O)=O)cc1 | 4 | 0 | 3.2
CC(C)NC(=O)Nc1ccc2c(c1)C(=O)N([C@@H](C)CO)C[C@@H](C)[C@@H](CN(C)C(=O)Nc1ccc(F)cc1)O2 | 0 | -3 | -0.6
COc1ccc(NC(=O)N(C)C[C@@H]2Oc3ccc(NC(=O)Nc4c(C)noc4C)cc3C(=O)N([C@H](C)CO)C[C@H]2C)cc1 | 2 | 7 | -2.4
C[C@H](CO)N1C[C@H](C)[C@@H](CN(C)Cc2ccc(Cl)c(Cl)c2)OCc2cn(nn2)CCCC1=O | -1 | 4 | 0.5
COc1ccc(CN(C)C[C@@H]2OCCCC[C@H](C)Oc3ccc(NC(=O)Cc4ccccc4)cc3C(=O)N([C@H](C)CO)C[C@@H]2C)cc1 | -1 | 7 | 1.5
O=C(C[C@H]1CC[C@@H]2NC[C@H](O)COC[C@H]2O1)N1CCc2ccccc2C1 | 1 | -1 | -1.8
CCCC#Cc1ccc([C@@H]2[C@@H](CO)N3C(=O)CN(C(=O)Nc4cc(F)ccc4F)C[C@H]23)cc1 | 0 | -28 | 30
C[C@@H]1ON(C)[C@H]2C[C@H]3c4cc(N5CCOCC5)ccc4CCN3C[C@@H]12 | 22 | 10 | 2.4
COCC#Cc1ccc([C@H]2[C@H]3CN(S(=O)(=O)c4ccccc4C)CCCCN3[C@H]2CO)cc1 | 1 | -10 | 1.6
CNC[C@H]1Oc2ccc(NC(=O)NC(C)C)cc2C(=O)N(C)C[C@@H]1C | 4 | 7 | 0.1
O=C1CCC(=O)N[C@H](c2ccc(F)cc2)C/C=C\C[C@@H](c2ccc(F)cc2)N1 | -2 | 5 | 2.9
CO[C@@H]1CN(C)C(=O)c2ccc(NC(C)=O)cc2OC[C@@H](C)N(Cc2cccc(F)c2)C[C@@H]1C | -1 | -4 | -0.6
C[C@H]1CN([C@@H](C)CO)C(=O)c2cc(C#Cc3cccc(F)c3)cnc2O[C@H]1CN(C)C(=O)C1CCOCC1 | 2 | 5 | -0.3
C[C@H](CO)N1C[C@H](C)[C@H](CN(C)Cc2ccncc2)OCCCC[C@H](C)Oc2ccc(NS(C)(=O)=O)cc2C1=O | -1 | -2 | 2.3
CN1c2ccc(Br)cc2[C@@H]2[C@@H](CCN2C(=O)Nc2cccc(F)c2)[C@H]1CO | -3 | -1 | 4.7

An excerpt from above in order of the rRNA inh HTS value, high to low.
compound | rRNA inh HTS
CC(C)NC(=O)N1CCCCN2[C@H](CO)[C@H](c3ccc(C#C[C@@H](C)O)cc3)[C@H]2C1 | 7
O=C(CC1CC1)Nc1ccc2c(c1)[C@H]1C[C@H](CC(=O)N3CCOCC3)O[C@H](CO)[C@H]1O2 | 1
COc1ccc(CN(C)C[C@@H]2OCCCC[C@H](C)Oc3ccc(NC(=O)Nc4ccccc4)cc3C(=O)N([C@@H](C)CO)C[C@@H]2C)cc1 | 0
O=C(NC[C@@H]1[C@H](c2ccccc2)[C@@H](CO)N1C(=O)C1CCC1)NC1CCCC1 | -2
COc1cccc(CNC(=O)C[C@@H]2CC[C@H]3[C@@H](COc4ccc(NC(C)=O)cc4C(=O)N3C)O2)c1 | -3
C[C@@H]1CN([C@H](C)CO)C(=O)c2cc(NC(=O)Nc3ccc(C(F)(F)F)cc3)ccc2O[C@@H](C)CCCCO[C@H]1CN(C)Cc1ccc(C(F)(F)F)cc1 | -6
